ClpP mod = qHTS Assay for Activators of ClpP. ATP-dependent Clp protease proteolytic subunit (Bacillus subtilis (strain 168)), P80244. purified B. subtilis ClpP, FRET peptide cleavage, 20 min. Potency, µM (top dose mostly 57.5 µM), inactives show top-dose activity change, negative = active. 1.9% of 340,000 active; active = well fitted falling curve with a large enough effect; inconclusive = small, poorly fitted or top-dose-only effect; inactive = no such curve, though single readings can be large or run the other way; also: potency is read from the fitted curve at half-maximal effect; the source files actives as falling curves though it sought activators and does not explain the sign; nearly all actives have a fitted effect of over 65% in size; many hits overshoot -100%
Target sequence (P80244 whole entry, looked up): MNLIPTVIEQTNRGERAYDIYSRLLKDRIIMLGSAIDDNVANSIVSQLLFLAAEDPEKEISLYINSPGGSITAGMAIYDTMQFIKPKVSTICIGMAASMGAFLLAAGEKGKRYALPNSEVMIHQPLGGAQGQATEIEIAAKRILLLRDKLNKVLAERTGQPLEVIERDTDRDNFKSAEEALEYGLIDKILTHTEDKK
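Purified B. subtilis ClpP, 10 microg/mL final in Tris/HCl pH8 with KCl, BSA, glycerol and Tween-20, cleaved an Abz/nitrotyrosine-quenched decapeptide. Fluorescence (ex 320, em 430) was read at 0 and 20 min at room temperature. Delta was normalized to 5.8 microM ADEP and DMSO/no-enzyme controls.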
Menin-MLL FL inh = qHTS Assay for Inhibitors Targeting the Menin-MLL Interaction in MLL Related Leukemias: Competition With Fluorescein Labeled MLL-derived Peptide. 290,000 tested, under 10 active. FP activity change, % at 61.4 µM. Fluorescence polarization, fluorescein-MLL peptide displacement from menin; inconclusive = falling polarisation curve, or a change in total fluorescence; inactive = total fluorescence flat and polarisation flat or rising; no compound was filed as active; the % refers to the polarisation; negative = inhibition;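 also: % of control where 0% means no effect; inhibitors lower the polarisation; unlabelled MLL peptide was the positive control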
gsp agonist = qHTS for Agonist of gsp, the Etiologic Mutation Responsible for Fibrous Dysplasia/McCune-Albright Syndrome: qHTS. gsp mutant cells, cAMP HTRF, 30 min; control for the full effect not named in the record. Potency, µM (highest dose often 76.9 µM), without a hit: top-dose activation (cAMP increase), usual class: activators. 0.13% of 340,000 active. AID 624287, 2012; active = well fitted activation curve with a large enough effect; inconclusive = small, poorly fitted or top-dose-only effect, or another doubt; inactive = no such curve, though single readings can be large or run the other way; cell line not stated here;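 also: phosphodiesterase inhibitor Ro 20-1724 added with compounds to block cAMP breakdown; potency is read from the fitted curve at half-maximal effect; nearly all actives have a fitted effect of over 60% in size; about a fifth of the inactives were tested at one dose only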
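Cells stably selected in G418 were plated at 2000/well, grown 16-24 hr, then given compounds in DMSO with the PDE inhibitor […] (300 uM solution added) for 30 min at 37C; cAMP was read by HTRF.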
gsp antagonist = qHTS for Antagonists of gsp, the Etiologic Mutation Responsible for Fibrous Dysplasia/McCune-Albright Syndrome: qHTS; Potency, µM (top dose mostly 76.9 µM), for the others: top-dose activity change, negative = inhibition, actives largely listed as inhibitors; AID 624288, 2012; gsp-mutant cells, cAMP HTRF, 30 min; control for the full effect not named in the record; 0.4% of 340,000 active; active = falling curve of any shape with a large fitted effect; inconclusive = falling curve, mostly with a smaller effect; inactive = flat or rising curve; cell line not stated here;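 also: intracellular cAMP measured with PDE inhibitor Ro 20-1724 present during compound exposure; potency is read from the fitted curve at half-maximal effect; % is scaled to controls: 0 for no effect and ±100 for the full control effect; nearly all actives have a fitted effect of over 65% in size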
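Cells, 2000/well, grown 16–24 h in DMEM 10% FBS with 0.5 mg/ml G418, then compounds plus […] (300 uM addition stock), 30 min at 37C. cAMP read by HTRF (cAMP-d2 and anti-cAMP antibody-K in lysis buffer) after 30 min RT.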
TRPML1 agonist = qHTS for Agonists of the Human Mucolipin Transient Receptor Potential 1 (TRPML1). Mucolipin-1 (Homo sapiens), Q9GZU1. TRPML1-expressing cells, Ca2+ dye fluorescence, FDSS; host cell line not named in the record; reference of the full effect not given here. activation, % (test concentration not listed). 0.12% of 410,000 active. AID 624414, 2012; in the data active = activation above about 50%; inconclusive = about 30% to 50%; inactive = below about 30%; also: 0% is about no effect; the text of the record puts the active cut at 80%
Target sequence (Q9GZU1 whole entry, looked up): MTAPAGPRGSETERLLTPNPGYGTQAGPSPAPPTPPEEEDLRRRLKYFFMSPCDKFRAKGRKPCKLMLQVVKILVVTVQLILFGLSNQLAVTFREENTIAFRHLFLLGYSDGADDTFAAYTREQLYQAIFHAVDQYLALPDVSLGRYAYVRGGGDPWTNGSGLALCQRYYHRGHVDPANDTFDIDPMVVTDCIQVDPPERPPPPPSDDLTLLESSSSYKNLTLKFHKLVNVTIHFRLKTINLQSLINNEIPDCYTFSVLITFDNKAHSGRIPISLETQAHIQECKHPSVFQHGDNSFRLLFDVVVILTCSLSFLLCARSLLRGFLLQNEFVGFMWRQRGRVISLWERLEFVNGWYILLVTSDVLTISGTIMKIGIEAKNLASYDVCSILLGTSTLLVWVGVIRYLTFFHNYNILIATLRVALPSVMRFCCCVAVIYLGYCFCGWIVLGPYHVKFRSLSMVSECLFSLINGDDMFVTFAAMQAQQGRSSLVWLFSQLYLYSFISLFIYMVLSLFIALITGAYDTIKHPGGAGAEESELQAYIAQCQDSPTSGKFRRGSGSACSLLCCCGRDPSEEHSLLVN
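Kinetic FDSS Ca2+ read in Tet-induced TRPML1-DL cells (ABD Ca8 dye plus quencher, 45-90 min RT loading): baseline, then compound, then 110 s agonist window; EC80 agonist 54-4 at 4uM final added afterwards for a 110 s antagonist window.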
TRPML1 inh = qHTS for Inhibitors of the Human Mucolipin Transient Receptor Potential 1 (TRPML1). TRPML1-inducible cells, Ca2+ dye fluorescence, FDSS; hits give low values; inhibition of EC80 agonist-evoked calcium signal. 0.02% of 390,000 active. Mucolipin-1 (Homo sapiens), Q9GZU1. AID 624415, 2012. activity change, negative = inhibition, % (no concentration beside the values); in the data active means activity change below about -50%; inconclusive means about -30% to -50%; inactive means above about -30%;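 also: stimulus is agonist 54-4 at its EC80 concentration; % is scaled to controls: 0 for no effect and ±100 for the full control effect; compound concentration not given in the record; the text of the record puts the active cut at -80%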
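TRPML1-DL cells, Tet-induced overnight (~16 h, 37 °C) at 1,500 cells/well, were loaded with Ca8 no-wash dye plus quencher for 45-90 min at room temperature. Compounds were pinned during FDSS kinetic reading; agonist 54-4 at EC80 (4 uM final) then added.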
Numbers without * were called inactive; ? = inconclusive; nt = not tested or not shown; & = joins results of further samples; [ ] = another dose, or the depositor's remark.

SMILES	ClpP mod	Menin-MLL FL inh	gsp agonist	gsp antagonist	TRPML1 agonist	TRPML1 inh
O=C(CSc1ncccn1)Nc1ccccc1	-4.5%	1.1	14%	6%	0.7	-7
CCCC(=O)NC(c1ccc(OC)c(OC)c1)c1c(O)ccc2ccccc12 (centres undefined)	?	1.6	-42%[inhibitor]	-4%	-0.2	17
N#CC1=C(SCC(=O)Nc2cccc3cccnc23)NC(=O)C(C#N)C12CCCCC2 (centres undefined)	0.3%	-1.8	-1%	?	-0.4	3
COc1ccccc1NC(=O)Nc1sccc1-c1nc2ccccc2s1	-17%	13	-32%[inhibitor]	-11%	0.7	59
Cn1cc(-c2ccccc2)cc(C#N)c1=O	nt	-1.7	5%	8%	-0.1	5
CCN(CC)CCCNC(=O)CSc1nc(-c2cccs2)cc(C(F)(F)F)n1	-2.1%	-0.6	19%[15.4 µM]	4%	-0.7	-24
Cc1ccccc1OCC(=O)N/N=C/c1cn(C)c2ccccc12	-0.8%	1.3	12%[15.4 µM]	-36%	-1.0	19
CC(=O)Nc1ccc(SC(C)C(=O)NC2CCCC2)cc1 (centres undefined)	0.6%	-0.9	-1%[15.4 µM]	1%	-0.8	-4
CCCCn1ccnc1C(=O)c1ccc(S(=O)(=O)N(CCOC)CCOC)cc1	-0.8%	3.3	-26%	8%	-0.7	-8
CC(=O)Nc1ccc(S(=O)(=O)N=S(C)C)cc1	-1.8%	3.8&2.4	12%	-5%[15.4 µM]	0.2	3
O=c1cc(CN2CCN(S(=O)(=O)c3ccccc3)CC2)nc2sc(-c3ccccc3Cl)nn12	-1.4%	nt	nt	nt	-1.1	6
O=C(NCN1CCN(c2ccccc2F)CC1)c1ccccc1	1.3%	2.1	8%	6%	0.3	9
Cc1ccc(S(=O)(=O)N(Cc2ccc(Cl)cc2)c2ccccc2C(=O)NCc2cccnc2)cc1	0.5%	1.6	-3%	-10%	-0.2	67
Cc1cccc(NC(=O)CSc2nc3ccccc3nc2N2CCCCC2)c1	?	8.1	-50%[inhibitor]	-4%	2.2	0
CC(NC(=O)CN(c1cccc(C(F)(F)F)c1)S(=O)(=O)c1ccc(Cl)c([N+](=O)[O-])c1)c1ccccc1 (centres undefined)	0.3%	8.3	-11%[15.4 µM]	?	-0.1	19
Cc1ccc(-n2c(=S)[nH]c3[nH]ncc3c2=O)cc1	0.6%	3.8	7%	5%	-0.2	0
Cc1nn(C)c(C)c1NS(=O)(=O)c1ccc(Cl)s1	0.4%	nt	-9%	-1%	0.0	36
CCN(CC)c1nc2cc(OC)ccc2cc1C#N	4.7%	14	16%	5%	1.8	14
COc1ccc(CNC(=O)C2CCN(S(=O)(=O)c3cccc4nonc34)CC2)cc1OC	0.9%	nt	nt	nt	3.8	-6
COc1ccc(Cl)cc1-n1c(=S)sc2c(=O)[nH]c(SCC(=O)C(C)(C)C)nc21	1.0%	0.1	-17%	-30%	1.6	41
O=C(CSc1nnc(NC(=O)c2ccco2)s1)Nc1ccccc1Cl	nt	10	-5%[15.4 µM]	12%	0.3	19
CCOC(=O)c1c[nH]c2ccc3ccccc3c2c1=O	-0.8%	-0.8	-10%	-24%	3.2	2
COc1ccccc1CNC(=O)CCCc1nnc2n(C)c(=O)c3sccc3n12	-11%	-8.1	14µM*	-2%	0.0	3
CCc1nc2ccccc2c(=O)n1NCCc1ccccc1	-0.4%	3.5	-2%[15.4 µM]	1%	-0.1	1
CCOc1[nH]n(-c2ccccc2)c(=O)c1C=Nc1ccc(C(=O)OC)cc1	1.9%	-0.3	-76%[inhibitor]	10%	1.4	-13

Reprinted from the entries so far for reference:
SMILES	ClpP mod	Menin-MLL FL inh	gsp agonist	gsp antagonist	TRPML1 agonist	TRPML1 inh
O=C(CSc1nnc(NC(=O)c2ccco2)s1)Nc1ccccc1Cl	nt	10	-5%[15.4 µM]	12%	0.3	19
CCOC(=O)c1c[nH]c2ccc3ccccc3c2c1=O	-0.8%	-0.8	-10%	-24%	3.2	2
COc1ccccc1CNC(=O)CCCc1nnc2n(C)c(=O)c3sccc3n12	-11%	-8.1	14µM*	-2%	0.0	3
CCc1nc2ccccc2c(=O)n1NCCc1ccccc1	-0.4%	3.5	-2%[15.4 µM]	1%	-0.1	1
CCOc1[nH]n(-c2ccccc2)c(=O)c1C=Nc1ccc(C(=O)OC)cc1	1.9%	-0.3	-76%[inhibitor]	10%	1.4	-13

(cont.)
SMILES	ClpP mod	Menin-MLL FL inh	gsp agonist	gsp antagonist	TRPML1 agonist	TRPML1 inh
CC1CC(C)(C)Nc2ccc(N=O)cc21 (centres undefined)	2.7%	3.3	-2%	?	0.4	19
COc1ccc(NC(=O)C2=C(C)Nc3nc(SCc4ccccc4C)nn3C2c2cc(OC)c(O)c(OC)c2)cc1 (centres undefined)	-1.4%	nt	nt	nt	-0.4	17
Cc1cccc(NC2=NC(C)(C)N=C(N)N2)c1	nt	0.3	26%[15.4 µM]	15%	1.7	22
COc1ccc(CCNC(=S)Nc2cc(C)cc(C)c2)cc1	-5.0%	-2.4	-26%	-4%	4.1	51
O=C(CN1C(=O)CSc2ccc(S(=O)(=O)N3CCOCC3)cc21)NCc1cccnc1	nt	0.6	?	-2%	0.8	-5
Cc1cccc(NC(=O)Cn2c(C)c(C#N)c3ccccc32)c1C	-5.7%	0.3	0%	6%	0.9	13
O=C1C=C(c2cccc3c2oc2ccccc23)CCC1	-5.6%	nt	-35%	-10%	-0.7	3
NS(=O)(=O)c1ccc(Nc2ccc([N+](=O)[O-])c3nonc23)cc1	4.7%	?	6%	-7%	0.0	-5
O=C1/C(=C/c2ccc3c(c2)OCO3)Oc2cc(OCC(=O)N3CCC[C@H]3C(=O)O)ccc21	-1.1%	29	nt	-7%	nt	nt
O=C(Nc1nc2c(s1)CN(Cc1ccccc1)CC2)c1cccc(S(=O)(=O)N2CCc3ccccc32)c1	0.8%	?	-9%	4%	8.9	-6
CCSc1ccc([C@@H]2[C@@H]3C(=O)N(CC)C(=O)[C@@H]3[C@]3(C(=O)OC)CCCCN23)cc1OC	-3.3%	nt	nt	-13%	-0.3	4
CN(Cc1ccccc1)C(=O)[C@H]1CCC(=O)N1Cc1ccco1	-4.9%	2.3	-22%[15.4 µM]	-2%	0.0	-9
COC(=O)c1ccccc1NC(=O)CCc1c(C)nc2c(c(C)nn2-c2ccccc2)c1C	-11%	nt	nt	nt	2.3	3
O=S(=O)(c1ccc(Sc2nnc3ccccn23)nc1)N1CCOCC1	-1.9%	1.6	-16%	9%	-0.2	-11
CC1=CS/C(=C(/C#N)C(=O)N2CCOCC2)N1c1ccccc1	-1.5%	0.8	-39%[inhibitor]	16%	0.9	-7
Cc1ccc(/C=C/C(=O)NCc2cccs2)o1	1.0%	8.8	1%[15.4 µM]	1%	-0.3	8
COc1ccc(-n2c(-c3ccc(Cl)cc3)c[n+]3c2CCc2ccccc2-3)cc1	nt	3.8	19%	9%	-0.3	8
Cc1cc(OCC(=O)NCc2ccccn2)cc(C)c1Br	-2.3%	0.7	6%	2%	1.8	12
COc1ccc(Cl)cc1NC(=O)CCC(=O)c1ccc(C)cc1	-1.8%	nt	nt	nt	1.8	15
O=C(CSc1ccccc1)Nc1ccncc1	1.1%	5.7	1%	-4%	-0.3	5
O=C(NNc1ncc(C(F)(F)F)cc1Cl)c1c(Cl)cccc1Cl	-0.8%	-0.6	-58%[inhibitor]	16%	1.7	-10
COc1ccc2c(c1)CC/C(=C\Nc1ccc3c(c1)OCO3)C2=O	-0.4%	?	-4%	?	4.6	-6
Cc1ccc(NC(=O)c2ccc(OC(F)F)cc2)cc1S(=O)(=O)N(C)C	0.6%	1.0	7%	-20%	1.5	7
Cc1noc(C)c1CCC(=O)N1CCCC(CCC(=O)NCc2ccc(F)c(F)c2)C1 (centres undefined)	-2.1%	1.5	-49%[inhibitor]	10%	0.2	-9
COc1ccc(NC(=O)CCc2c(C)nc3c(c2C)c(=O)n(C)c(=O)n3C)cc1OC	-7.6%	nt	nt	nt	-0.9	-11
New compounds follow.
SMILES	ClpP mod	Menin-MLL FL inh	gsp agonist	gsp antagonist	TRPML1 agonist	TRPML1 inh
COCCN1C(=O)N(c2cccc(C)c2)C(=O)C1CC(=O)Nc1ccc(OC)cc1 (centres undefined)	0.4%	-0.4	-9%	6%	-0.1	-8
O=[N+]([O-])c1ccc(/C=C/c2ccc3ccccc3n2)cc1	nt	-0.3	22%	-4%	0.7	16
Cc1cc(C)cc(NC(=S)N2CCC(NC(=O)C3CCCCC3)CC2)c1	nt	2.7	10%[15.4 µM]	0%	-0.2	26
O=C(CC1(O)C(=O)N(Cc2ccccc2)c2ccc(Br)cc21)c1ccccc1 (centres undefined)	-4.7%	nt	nt	nt	0.0	-1
Fc1ccc(CSc2nnc(-c3cccnc3)o2)cc1	-0.2%	-5.4	-16%	17%	1.0	?
C[C@H](CO)N1C[C@H](C)[C@@H](CN(C)Cc2ccccc2)Oc2ccc(NC(=O)Cn3cnnn3)cc2C1=O	-1.2%	nt	nt	8%	-0.3	-8
CCN(CC)CCNC(=O)c1ccc(NC(=O)c2cccc(S(=O)(=O)N3CCc4ccccc43)c2)cc1	-2.5%	nt	-31%	-7%	-0.1	-11
Cc1nn(-c2ccccc2)c(N2CCCC2)c1/C=N/NC(=O)c1cc(-c2ccccc2)nc2ccccc12	-1.8%	14	7%	-8%	0.0	-4

Single records, as listed above. Order of values: ClpP mod | Menin-MLL FL inh | gsp agonist | gsp antagonist | TRPML1 agonist | TRPML1 inh
Results for O=[N+]([O-])c1ccc(/C=C/c2ccc3ccccc3n2)cc1 = nt | -0.3 | 22% | -4% | 0.7 | 16
Results for O=C1/C(=C/c2ccc3c(c2)OCO3)Oc2cc(OCC(=O)N3CCC[C@H]3C(=O)O)ccc21 = -1.1% | 29 | nt | -7% | nt | nt

High-throughput results: PubChem BioAssay, National Center for Advancing Translational Sciences (NCATS)
